MT1-MMP act inh = inhibitors of human MT1-MMP activation | AID 651647 | HT1080 RFP-PRO-GFP cells, GFP/RFP ratio fluorescence, overnight; percent of plate control window, DMSO zero | 360,000 compounds, 0.061% hits | P50281 | GFP/RFP ratio change, % at 20 µM;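 active = GFP/RFP ratio change of at least 30% with cell ATP level not reduced by more than half and red fluorescence within 50% of control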; note: strong numbers were not always called active
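Compound: 20 µM single dose, 1% DMSO / System: HT1080 RFP-PRO-GFP cells / Controls: DMSO and RFP-L50D-GFP cell wells / Read-out basis: GFP/RFP fluorescence ratio / Schedule: overnight compound exposure at 37 °C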
UUG fidelity = yeast start codon fidelity modulation | S. cerevisiae UUG-firefly luciferase reporter, luminescence/redox ratio | 350,000 compounds, 0.13% hits | activity score, % at 18.7 µM;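 active = replicate mean at a twofold rise or more, about +100% in these data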;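 note: firefly luciferase made from a UUG start codon reports start codon fidelity; reporter light over untreated wells divided by growth signal over untreated wells; some hits fall short of that in this replicate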
Env fusion inh = blocks HIV Env-driven cell-cell fusion. 360,000 compounds, 1.1% hits. AID 651610. HeLa-JRFL Env/CEM21 cell fusion, luciferase. inhibition, % at 12.3 µM;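 active = mean replicate inhibition score of at least 50 and every replicate individually at or above 50; inconclusive = only one of the two criteria met; inactive = mean below 50 and not all replicates reaching 50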;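 note: 0% = plate neutral controls and 100% = maraviroc near 300 nM; one replicate is shown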
PABP polyA inh = PABP-poly(A) binding inhibition; P11940; PABP-poly(A) RNA binding, fluorescence polarization; inhibition, % at 35 µM; 290,000 compounds, 1% hits; AID 2014;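 active = 50% or more with normal probe brightness, or confirmed in later tests; inconclusive = above 50% with abnormal brightness, or retests that disagree; inactive = below 50% or failed in later tests; about a fifth of its hits are not listed in these tables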;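 note: calls also rest on retests at 20 µM and on dose response follow-up; controls were probe without protein and protein plus probe with vehicle; some compounds called inactive have numbers as strong as hits; many hits fall short of the cut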
Target sequence (P11940 whole entry, looked up): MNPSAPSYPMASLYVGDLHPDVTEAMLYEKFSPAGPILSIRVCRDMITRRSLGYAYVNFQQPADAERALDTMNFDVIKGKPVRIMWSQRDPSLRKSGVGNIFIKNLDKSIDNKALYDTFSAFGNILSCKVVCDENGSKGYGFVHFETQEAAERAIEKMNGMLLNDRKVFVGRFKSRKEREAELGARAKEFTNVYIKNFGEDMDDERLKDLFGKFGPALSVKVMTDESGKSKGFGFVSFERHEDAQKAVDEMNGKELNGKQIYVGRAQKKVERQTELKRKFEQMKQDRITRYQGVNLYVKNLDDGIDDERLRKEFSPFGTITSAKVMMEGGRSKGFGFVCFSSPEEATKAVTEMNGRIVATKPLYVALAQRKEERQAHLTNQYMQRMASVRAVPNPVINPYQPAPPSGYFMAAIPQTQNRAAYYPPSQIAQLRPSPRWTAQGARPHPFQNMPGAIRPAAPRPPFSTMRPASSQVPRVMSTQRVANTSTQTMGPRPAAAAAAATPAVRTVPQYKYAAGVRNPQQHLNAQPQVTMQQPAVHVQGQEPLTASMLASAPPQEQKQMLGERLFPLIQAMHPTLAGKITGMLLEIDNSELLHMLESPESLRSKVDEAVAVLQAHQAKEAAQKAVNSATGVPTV
CSC inhib = cancer stem cell inhibition. AID 2717. 300,000 compounds, 1.1% hits. cancer stem cell-like cells viability, luminescence. inhibition, % at 7.5 µM;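 active = mean at 75% or more and at least half the replicates too; inconclusive = mean and replicates disagree; tested in HMLE shEcad cells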;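 note: 0% = median of negative and 100% = median of positive control wells; the first replicate is given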
Rce1 inhib = yeast Ras-converting enzyme inhibition | Q03530 | yeast membranes, quenched prenylated peptide cleavage fluorescence | calls only | 290,000 compounds, 0.27% hits | AID 2563;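 active = fall in fluorescence gain of 50% or more versus controls, with final raw signal at or below 3038400; inconclusive = same 50% fall but final raw signal above 3038400; inactive = fall in fluorescence gain under 50%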;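 note: plate controls were neutral control wells for no effect and wells lacking membranes for full effect; tested at 10 µM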
eIF4H inh = inhibitors of RNA binding by human eIF4H | Q15056 | eIF4H fluorescence polarization binding assay | inhibition, % at 35 µM | 290,000 compounds, 0.94% hits;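 active = 50% or more with normal probe brightness, or confirmed in later tests; inconclusive = above 50% with abnormal brightness, or retests that disagree; inactive = below 50% or failed in later tests; about a fifth of its hits are not listed in these tables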;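 note: calls also rest on retests at 20 µM and on dose response follow-up; 0% = protein and probe with vehicle and 100% = probe without protein; strong numbers were not always called active; many hits fall short of the cut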
MT1-MMP act inh RFP = recorded beside MT1-MMP act inh, whose call it bears; RFP signal change, %; measured here: RFP expression control read;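 0 = vehicle wells; hits needed this value within 50% of zero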
Starred values were filed as active, the others as inactive; i = inactive; ? = inconclusive; . = no result given. An unsorted share of the library (roughly 3% active in at least one column).

SMILES	MT1-MMP act inh	MT1-MMP act inh RFP	UUG fidelity	Env fusion inh	PABP polyA inh	CSC inhib	Rce1 inhib	eIF4H inh
CCOC(=O)c1c(C)c(C(=O)NCC2CCCO2)c(C)n1C (stereo unspecified)	3.2	4.2	-3.8	-12.0	5.5	.	i	5.0
CCCCN=C(Nc1ccc(Cl)cc1)c1cccnc1	0.3	2.5	.	31.0	-4.8	-16.5	i	-6.4
CCCCCCSc1ccc(-c2nc3ccc(Cl)cn3c2NCc2ccccc2)cc1	-1.9	-9.7	-6.4	-58.0	.	61.1	.	.
Cc1noc(C)c1CSc1nnc(-c2ccccc2)n1N	2.3	6.2	-10.3	.	5.1	-6.2	i	-11.4
COCc1nnc(NS(=O)(=O)c2ccc(Cl)cc2)s1	-0.6	-0.4	-8.9	-17.7	9.4	.	i	-5.5
COC(=O)COc1cccc(NC(=O)c2ccccc2)c1	8.1	-1.4	-7.2	-37.1	3.9	17.0	i	-14.5
Cc1cccn2cc(-c3ccc(NC(=O)Cc4ccccc4)cc3)nc12	1.2	-0.5	-10.8	-16.5	?	-1.3	i	?
Cc1ccc(N2C(=O)C3C4C=CC(CNC(=S)Nc5ccc(Cl)cc5)(O4)C3C2=O)cc1 (stereo unspecified)	2.1	-14.5	-15.4	5.4	-4.2	17.1	i	1.5
COc1cc2c(cc1OC)CN(S(=O)(=O)c1cccc(F)c1)CC2	0.6	1.9	-8.7	16.0	-13.8	-12.4	i	-11.2
COc1cccc(C2/C(=C(\O)c3ccc4c(c3)OCCO4)C(=O)C(=O)N2CC2CCCO2)c1 (stereo unspecified)	.	.	-18.3	-0.2	-2.5	-14.6	i	-3.2
COCCn1c(SCc2ccc(C(=O)OC)o2)nc2cc(Cl)ccc2c1=O	-7.6	-8.9	-16.6	21.8	0.5	-1.7	i	-2.1
Cc1ccc(/C=C/S(=O)(=O)NCC(=O)O)cc1	-1.2	3.3	.	5.9	-4.5	.	i	2.5
COc1cc(/C=C(\C#N)c2nc3ccccc3o2)ccc1O	-114.1	4.2	1.3	-370.2	?	17.7	i	?
Cc1ccc(C(=O)NNS(=O)(=O)c2ccccc2[N+](=O)[O-])cc1	-5.5	-2.0	-9.5	.	-0.2	-9.5	i	-12.9
COC(=O)C1=C(NC(=O)COc2ccc3ccccc3c2)CCS1	-1.2	0.0	-15.8	-17.4	-27.1	-2.4	i	-0.4
O=C(CSc1ccc(Cl)cc1)N/N=C/c1ccc([N+](=O)[O-])o1	2.4	-1.3	-18.8	15.6	11.9	-2.4	i	26.1
Cc1ccc(-c2nn3c(C)nnc3c3ccccc23)cc1S(=O)(=O)N(C)CCO	11.9	14.4	-16.7	.	0.3	16.7	i	-3.4
CC12C(=O)N(Cc3ccccc3)C(=O)C1C1C=CC2C1 (stereo unspecified)	3.6	0.1	0.7	-7.4	3.0	10.8	i	6.4
CC(C)OCCCNc1ncnc2c1nc1n2CCCC1	-1.1	-0.9	-3.6	-7.8	81.4*	3.6	i	93.5*
COc1cc(/C=C/C(=O)O)ccc1OS(=O)(=O)c1cc(Br)ccc1C	-1.3	0.3	-11.8	.	.	-7.7	.	.
COc1ccc(S(=O)(=O)Nc2nc3ccccc3s2)cc1OC	-5.6	-0.6	17.4	.	7.5	-0.2	.	-3.4
Cc1ccc(OCCNC(=O)CNC(=O)c2ccc(Cl)c([N+](=O)[O-])c2)cc1	-1.1	-4.8	-32.5	2.2	.	15.0	.	.
Cc1ccc(S(=O)(=O)N2CCC(=O)N(CCOC(=O)Nc3cc(C)cc(C)c3)CC2)cc1	2.4	-3.7	-18.4	51.5	3.0	34.8	i	-14.4
C=CCn1cc(C(=O)NCc2ccc(Cl)cc2)c(=O)c2cc(S(=O)(=O)N(CC)CC)ccc21	1.2	-5.6	-9.7	.	-2.0	-9.9	i	0.2
NC(=O)CC(NC(=O)Cc1ccc(Br)cc1)c1ccc(NCc2ccc(F)c(F)c2)c([N+](=O)[O-])c1 (stereo unspecified)	6.9	-6.9	-15.4	27.5	-8.9	56.7	i	1.1
Remaining list, next part
SMILES	MT1-MMP act inh	MT1-MMP act inh RFP	UUG fidelity	Env fusion inh	PABP polyA inh	CSC inhib	Rce1 inhib	eIF4H inh
CSc1ccccc1C(=O)Nc1ccc2c(c1)CCC2	-0.2	-0.9	-9.5	-20.6	-2.1	0.6	i	-3.9
CC(=O)Nc1ccc(S(=O)(=O)NC2(C(F)(F)F)NC(=O)N(CC(C)C)C2=O)cc1 (stereo unspecified)	-2.6	0.9	.	-7.0	11.4	-11.4	i	8.5
CCOCc1cn(CC(=O)c2ccc(Cl)cc2)c(C)nc1=N	5.2	3.3	-6.4	.	-3.2	-12.8	i	-2.9
Cc1cccc(N2CCN(S(=O)(=O)c3cc(-c4cc(C)no4)ccc3C)CC2C)c1 (stereo unspecified)	-5.1	-28.6	4.2	-46.8	1.1	52.9	i	15.1
COc1ccccc1NC(=S)N1CC(C)(C)C1=O	-1.3	-2.1	-6.7	11.2	-5.0	-5.4	i	3.7
COc1ccccc1C(=O)Nc1ccc(NC(=O)c2ccco2)cn1	3.4	1.5	.	-6.0	37.6	-4.8	i	5.1
CC(C)(C)OC(=O)NCCCCCO	3.2	4.9	-32.8	18.2	.	-6.5	.	.
Cc1cccc(NC(=O)C2CCCN(C(=O)NC3CCCCC3)C2)c1C (stereo unspecified)	4.0	-1.9	-9.6	-5.9	9.7	-12.1	i	-9.1
CCOC(=O)N1CCN(CC(O)c2c[nH]c3ccc(OC)cc23)CC1 (stereo unspecified)	2.3	3.9	-3.1	0.4	4.6	-14.9	i	-7.3
CCOc1ccc(C(=O)Nc2ccc(NC(=O)c3ccco3)c(Cl)c2)cc1Cl	-1.3	-0.4	.	.	1.1	11.4	i	13.1
COc1ccccc1C(=O)NCCC(=O)N1CCN(c2ccccc2Cl)CC1	2.1	-2.2	0.5	-2.2	.	-4.7	i	.
Cc1nn(-c2ccccc2)c(N2CCCC2)c1/C=N/NC(=O)C1CC1	-1.2	-2.0	.	6.4	12.5	-10.7	i	-2.3
O=C(Nc1ccccc1N1CCCCC1)C1CCN(S(=O)(=O)c2ccccc2C(F)(F)F)CC1	-13.4	-11.0	.	.	.	21.9	i	.
CN(Cc1ccccc1)S(=O)(=O)c1ccc2c(c1)CCC(=O)N2	1.5	-5.3	-15.3	9.5	4.8	-38.9	i	6.0
Cc1csc(NC(=O)CSc2ccccc2F)n1	-8.0	-4.0	.	6.8	0.2	11.6	i	7.9
Cc1ccc(NC(=O)c2ccc(C)c(S(=O)(=O)N3CCOCC3)c2)nc1	2.1	1.4	-12.5	.	.	-10.0	i	.
O=C(CSc1ccc2c(c1)OCCO2)NCCN1C(=O)CSC1=O	-2.8	-1.7	-5.5	.	-3.4	.	i	-1.8
CC(/C=C/C1[C@H](C)C[C@H](O[C@@H]2O[C@H](CO)[C@@H](O)[C@H](O)[C@H]2O)CC1(C)C)O[C@H]1O[C@H](CO)[C@@H](O)[C@H](O)[C@H]1O (stereo partly specified)	-0.3	5.2	-4.3	.	.	-6.8	.	.
CC(=O)c1ccc(NC(=O)Nc2cccnc2)cc1	-2.9	-0.5	-7.9	.	-2.3	-10.6	i	6.7
O=S(=O)(NCc1cccnc1)c1ccc(Br)c2ccccc12	0.9	-1.8	-6.5	5.3	4.3	4.4	i	8.5
CCn1c(COc2ccc(=O)n(-c3ccccc3)n2)nnc1SCc1ccccc1	-4.6	-9.1	-8.2	-33.6	7.0	-8.5	i	-5.9
CC1(C(=O)O)CCCN1C(=O)c1cccc(F)c1 (stereo unspecified)	5.2	4.5	-9.7	-14.0	.	.	.	.
COc1ccc(C(=O)Nc2cc(=O)n(C)c(=O)n2C)cc1	6.3	4.6	.	-4.2	1.0	-3.0	i	-1.7
CCCCN(C(=O)Cn1nnc2ccccc21)C(C(=O)NCCOC)c1ccc(OC)cc1 (stereo unspecified)	4.4	12.2	-9.2	32.2	-6.3	-5.1	i	4.7
O=C(C1CCN(S(=O)(=O)c2c(Cl)cccc2Cl)CC1)N1CCCCCCC1	-3.3	1.8	.	-7.9	.	5.5	i	.
Carrying on:
SMILES	MT1-MMP act inh	MT1-MMP act inh RFP	UUG fidelity	Env fusion inh	PABP polyA inh	CSC inhib	Rce1 inhib	eIF4H inh
N#Cc1cccnc1N1CCN(C(=O)c2cccc3c2C(=O)c2ccc(-c4ccc(F)cc4OCc4ccccc4)cc2S3(=O)=O)CC1	-4.2	-0.5	-9.1	-5.9	.	.	.	.
Cn1c(N)c(C(=O)COC(=O)c2cc(-c3ccccc3)nc3ccccc23)c(=O)n(Cc2ccccc2)c1=O	-7.1	-3.3	-3.6	.	9.9	10.9	.	8.2
O=C(Nc1ccccc1)N1CCCCC1c1cccnc1 (stereo unspecified)	-2.4	5.7	-21.1	-1.9	0.5	-0.2	i	-7.4
CC(C)(O)C#Cc1ccc(C(=O)N2CCCC2C(=O)O)s1 (stereo unspecified)	4.9	4.0	-16.7	.	-1.0	.	i	0.8
COc1ccc(-n2c(C)cc(/C=C3\SC(=S)N(Cc4ccco4)C3=O)c2C)cc1	-65.8	4.1	.	5.9	5.9	30.3	i	36.5
Cc1cc(NC(=NC2CC2)c2ccccc2F)n(-c2ccccc2)n1	-6.9	-1.9	.	11.2	-13.1	-3.4	i	-7.1
Cc1ccc(-n2c(COc3ccccc3)nnc2SCC(=O)O)cc1	-1.7	2.9	-6.3	2.3	.	.	.	.
Cc1cc(C)n2c(C)nnc2c1	-1.4	1.6	-2.7	11.1	5.8	.	i	1.6
Cc1ccc(-c2csc3ncn(CC(=O)N4CCOCC4)c(=O)c23)cc1	2.6	0.9	-4.8	.	1.8	-2.6	i	3.5
Oc1c(Br)cc(/C=N/Nc2ccc(Cl)nn2)cc1Br	6.2	3.9	-1.5	-26.8	23.2	-1.8	i	-10.8
N#CCSc1nc2c(c(=O)n1Cc1ccco1)C1(CCCC1)Cc1ccccc1-2	-9.2	-18.6	-15.4	11.6	3.3	83.0*	i	-3.9
CC1(C)CC(=O)C2=C(C1)NCN(Cc1ccccc1)C2	-5.8	2.6	-4.7	-55.8	-3.6	1.3	i	-1.6
O=C(CCC(=O)Nc1ccccc1Cl)NNC(=S)Nc1ccccc1C(F)(F)F	0.1	2.1	-19.7	-13.2	-3.1	-12.5	i	1.3
Cc1nn(CCCC(=O)O)c(C)c1[N+](=O)[O-]	-1.4	4.4	.	-4.0	2.9	-3.4	i	-10.4
Cc1cc(C)nc(Nc2ccc(Br)cc2C(=O)O)n1	-1.6	2.3	1.2	-6.9	-3.6	-10.7	i	-9.2
COc1cc2c3c(c1OC)C1(C=CC(=NO)C=C1)CC3N(C(C)=O)CC2 (stereo unspecified)	9.7	6.3	-12.7	-17.1	-2.4	3.9	i	5.2
COc1ccc(C2C(C#N)=C(N)Nc3onc(C(C)(C)C)c32)c(OC)c1 (stereo unspecified)	-2.7	-4.3	-13.8	-7.5	-10.9	5.9	i	-7.9
O=C(Oc1ccccc1Cl)c1ccc(N2CCOCC2)c([N+](=O)[O-])c1	7.5	4.2	.	-31.6	-7.7	6.5	i	1.1
Cc1ccc2nc3sc(C(=O)N4CCCc5ccccc54)c(N)c3cc2c1	-200.3	-20.9	-14.8	-89.5	13.8	63.8	i	-4.1
O=C(NCc1cccnc1)C(=O)Nc1ccc([N+](=O)[O-])cc1	0.0	0.7	-4.2	8.3	-7.9	.	i	13.4
